V. cholerae motility = Vibrio cholerae motility inhibitors, OD read-out (AID 588778). 10,000 tested, under 10 active. inhibition, %, or IC50 in µg/mL where a hit was titrated. Vibrio cholerae motility, OD read-out; higher % means a stronger effect; test concentration not given here; primary cut-off and reference of the scale not given here; strong numbers were not always called active; in the data active = confirmed in a dose series
V. cholerae motility viability = further read-out of V. cholerae motility, marked with its call; inhibition, %; measured here: bacterial viability at 10 ug/mL;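 higher means fewer living bacteria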
Numbers without * were called inactive.

1. S=C(Nc1ccc2snnc2c1)N1CCN(c2ccccc2)CC1
2. O=C(CSCc1ccccc1)NCCc1ccc(F)cc1
3. COc1ccc(Br)cc1C(=O)NC(=S)Nc1ccc(N2CCN(S(C)(=O)=O)CC2)cc1
4. O=C(C(=O)N1CCOCC1)c1cn(Cc2c(F)cccc2Cl)c2ccccc12
5. CN(C)c1nc(Oc2ccc(OCc3ccccc3)nn2)nc(N(C)C)n1

screen / no.	1	2	3	4	5
V. cholerae motility	9%	17%	4%	-10%	9%
V. cholerae motility viability	2	21	-4	-8	0

6. CCOC(=O)c1ccc(NC(=S)NCCc2cnc[nH]2)cc1
7. Cc1nnc(N/N=C/c2ccccc2OCc2ccccc2)[nH]c1=O
8. O=C(NNC(=S)NCC1CCCO1)c1cc(-c2ccc(Cl)cc2Cl)nc2ccccc12 (stereo unspecified)
9. Cc1sc(NC(=O)CSC2=NCCS2)nc1-c1ccccc1
10. COc1ccc(OCC(O)CNC(=O)c2ccc([N+](=O)[O-])cc2)cc1 (stereo unspecified)

screen / no.	6	7	8	9	10
V. cholerae motility	12%	3%	5%	-6%	1%
V. cholerae motility viability	2	1	-1	-4	-4

11. O=C(CSc1nc(-c2ccc(F)cc2)cc(C(F)(F)F)n1)N1CCCC1
12. Clc1cccc(Cl)c1Cn1cnc2c(Oc3cccnc3)ncnc21
13. O=C(NN1C(=O)C2C3C=CC(C4CC34)C2C1=O)c1cccnc1 (stereo unspecified)
14. O=C(NNC(=O)c1ccc(OC2CCCC2)cc1)NC12CC3CC(CC(C3)C1)C2
15. CSc1nsc(SCc2ccc(F)cc2)n1

screen / no.	11	12	13	14	15
V. cholerae motility	4%	-3%	-10%	39%	26%
V. cholerae motility viability	9	-3	-5	6	7

16. COc1ccccc1CCNC(=O)c1ccc(COCC(F)(F)C(F)F)cc1
17. O=Cc1c(N2CCN(c3ccccc3F)CC2)nc2ccccn2c1=O
18. COc1ccc(-c2c(C)nn(Cc3ccccc3)c2N)cc1
19. O=C(Nc1nc2ccccc2n1CCN1CCOCC1)c1ccc(COc2ccccc2Br)o1
20. Fc1cc(Cl)ccc1NC(=S)NCCN1CCOCC1

screen / no.	16	17	18	19	20
V. cholerae motility	-2%	1%	-1%	3%	-13%
V. cholerae motility viability	-1	0	9	-8	-4

21. CC(NC(=O)C1c2ccccc2Oc2ccccc21)c1ccncc1 (stereo unspecified)
22. N#C/C(=C\c1cn(Cc2ccc(Cl)c(Cl)c2)nc1-c1ccccc1)c1nc2ccccc2[nH]1
23. Cc1ccc(-n2nc3c([n+]2[O-])CCc2nonc2-3)cc1
24. CC(C)(Oc1ccccc1Cl)C(=O)Nc1ccc(Cc2ccncc2)cc1
25. CC(C(N)=S)N1C(=O)c2ccccc2C1=O (stereo unspecified)

screen / no.	21	22	23	24	25
V. cholerae motility	-20%	-2%	1%	8%	-9%
V. cholerae motility viability	-1	21	6	2	-7

26. Brc1cc2[nH]cnc2c2ccccc12
27. c1ccc2c(c1)OCC(c1nn3c(Cn4nnc5ccccc54)nnc3s1)O2 (stereo unspecified)
28. Cc1ccc(SC(C)C(=O)Nn2cnnc2)cc1 (stereo unspecified)
29. CCC(=O)N(CCC(c1ccco1)c1ccccc1OC)Cc1cccs1 (stereo unspecified)
30. O=C(Nc1cccc([N+](=O)[O-])c1)C(Cl)(Cl)Cl

screen / no.	26	27	28	29	30
V. cholerae motility	30%	-1%	9%	-1%	29%
V. cholerae motility viability	6	0	12	-1	5

31. O=C(Nc1ccc(I)cc1)Nc1ccc2c(c1)OCO2
32. Cc1cccn2c(=O)c(NC(=O)c3cccs3)cnc12
33. CC(=O)c1ccc(N2C(=O)C(C(C)C)NC2=S)cc1 (stereo unspecified)
34. CCNC(=S)N1CCN(CC(=O)Nc2ccc(Br)cc2)CC1
35. CS(=O)(=O)c1nc(-c2ccc(Br)cc2)cc(-c2ccccc2)c1C#N

screen / no.	31	32	33	34	35
V. cholerae motility	10%	-4%	-7%	1%	-27%
V. cholerae motility viability	-7	1	4	-4	-14

36. O=C(N/N=C/c1ccc(O)cc1)c1cc(C23CC4CC(CC(C4)C2)C3)[nH]n1
37. CN(CC(=O)Nc1ncn[nH]1)S(=O)(=O)c1ccc2ccccc2c1
38. Cc1c(Cl)c(C)c(Cl)c(OCC(=O)O)c1Cl
39. CC(=O)Nc1ccc2nc(-c3ccc(Br)o3)[nH]c2c1
40. O=S(=O)(c1ccccc1)c1ccc(I)cc1

screen / no.	36	37	38	39	40
V. cholerae motility	10%	-2%	12%	12%	7%
V. cholerae motility viability	3	-2	-3	2	-11

41. CSCCC(C(=O)Nc1ccc(Br)cc1)N1C(=O)c2ccccc2C1=O (stereo unspecified)
42. O=C(Oc1ccccc1)c1cn(-c2ccccc2)nc1-c1cccc([N+](=O)[O-])c1
43. O=C1C2C3C=CC(C3)C2C(=O)N1c1n[nH]c(CCc2ccccc2)n1 (stereo unspecified)
44. O=C(Nc1ccc2c(c1)oc1ccccc12)c1cccc(N2C(=O)CCC2=O)c1
45. Nc1nc(N)nc(Cc2ccccc2)n1

screen / no.	41	42	43	44	45
V. cholerae motility	6%	-3%	-1%	15%	0%
V. cholerae motility viability	-5	21	2	5	5

46. Cc1cccc(NC(=O)CSc2nnc(C)n2-c2ccc(F)cc2)c1C
47. O=C(Nc1nc(-c2ccc(Br)cc2)cs1)NC1CCCCC1
48. COc1ccc2oc3nc(=O)c4ccccc4c-3cc2c1
49. Cc1cc2c([nH]c(=O)c3c(=O)cc(C(F)(F)F)[nH]c32)s1
50. NC(=O)c1cc(S(=O)(=O)Nc2cccc(C(F)(F)F)c2)ccc1O

screen / no.	46	47	48	49	50
V. cholerae motility	-2%	7%	38%	-12%	3%
V. cholerae motility viability	-5	-5	22	-2	-2

Some values from the entries so far.
V. cholerae motility viability with `O=C(C(=O)N1CCOCC1)c1cn(Cc2c(F)cccc2Cl)c2ccccc12` reads -8
V. cholerae motility with `CC(C)(Oc1ccccc1Cl)C(=O)Nc1ccc(Cc2ccncc2)cc1` reads 8%

(cont.)
51. Cc1nc(NC(=O)c2csc3ccccc23)sc1C
52. COc1ccc(-c2nnc(SCc3csc(N)n3)n2C)cc1
53. O=S(=O)(CCN1CCCC1)c1ccc(Oc2ccc(S(=O)(=O)CCN3CCCC3)cc2)cc1
54. CCOc1ccccc1N1CCN(S(=O)(=O)c2ccc(Cl)s2)CC1
55. CCCCOCC1CN(c2ccccc2)C(=O)CS1 (stereo unspecified)

screen / no.	51	52	53	54	55
V. cholerae motility	1%	-6%	-11%	-15%	8%
V. cholerae motility viability	-6	0	-2	-5	23

56. O=C(NCCC1=CCCCC1)C(=O)NCc1ccccc1Cl
57. COc1cccc(OCC(O)CNc2ccc(C)c(C)c2)c1 (stereo unspecified)
58. CS(=O)(=O)N1CCN(C(=S)NCc2ccc(F)cc2)CC1
59. O=C(CCCCc1cccs1)NCc1ccccc1
60. COc1ccc2nc(NC(=O)CSc3nnnn3C)sc2c1

screen / no.	56	57	58	59	60
V. cholerae motility	12%	8%	4%	9%	-27%
V. cholerae motility viability	12	1	-1	3	-8

61. CCn1cc(Br)c(C(=O)Nc2ccc(F)cc2F)n1
62. O=C(NCCO)NC(=S)c1ccccc1
63. Cn1cnnc1SCc1ccccc1F
64. CN1C(=O)c2ccc(C(=O)c3cccc([N+](=O)[O-])c3)cc2C1=O
65. C=CCn1c(N)cc(=O)nc1SCC(=O)OC1CC2CCC1(C)C2(C)C (stereo unspecified)

screen / no.	61	62	63	64	65
V. cholerae motility	4%	-8%	2%	72%	0%
V. cholerae motility viability	-2	0	1	23	-4

Laid out differently: 5 of the compounds above.
Order of values: V. cholerae motility	V. cholerae motility viability
[61] CCn1cc(Br)c(C(=O)Nc2ccc(F)cc2F)n1
 : 4%	-2
[62] O=C(NCCO)NC(=S)c1ccccc1
 : -8%	0
[63] Cn1cnnc1SCc1ccccc1F
 : 2%	1
[64] CN1C(=O)c2ccc(C(=O)c3cccc([N+](=O)[O-])c3)cc2C1=O
 : 72%	23
[65] C=CCn1c(N)cc(=O)nc1SCC(=O)OC1CC2CCC1(C)C2(C)C (stereo unspecified)
 : 0%	-4

The list goes on.
66. CC(CC(=O)NC1CCCCC1)S(=O)O (stereo unspecified)
67. CCCCNCCOc1ccc(OCc2ccccc2)cc1
68. Cc1c(C(=O)ON2C(=O)c3ccccc3C2=O)cccc1[N+](=O)[O-]
69. Cc1cccc(N2C(=O)c3cccc4c(Cl)ccc(c34)C2=O)n1
70. COc1cc(N2CCCC2)c(OC)cc1/C=C(/C#N)c1nc2ccc(C)cc2[nH]1

screen / no.	66	67	68	69	70
V. cholerae motility	9%	-1%	-6%	10%	-42%
V. cholerae motility viability	1	-3	-4	3	-18

71. COc1ccc(CC(=O)NCc2nnc(SCC(=O)Nc3ccc(Br)c(C)c3C)n2C)cc1
72. CCCCOc1ccc(OCCNC(=O)c2ncn[nH]2)cc1
73. Cc1ccc(OCCSc2n[nH]c(N)n2)cc1
74. CCCC(=O)c1ccc(OCc2cc(C(C)=O)ccc2OC)cc1
75. O=S(=O)(c1ccc(Cl)c(Cl)c1Cl)n1cnc2ccccc21

screen / no.	71	72	73	74	75
V. cholerae motility	-4%	2%	1%	-19%	-11%
V. cholerae motility viability	-7	-5	-7	4	-4

In another format: entries from further up.
Order of results: V. cholerae motility | V. cholerae motility viability
74	CCCC(=O)c1ccc(OCc2cc(C(C)=O)ccc2OC)cc1
  -19% | 4
75	O=S(=O)(c1ccc(Cl)c(Cl)c1Cl)n1cnc2ccccc21
  -11% | -4

Other results:
76. O=C(O)c1ccc(NC(=O)c2cn(-c3ccccc3)nc2-c2cc3ccccc3oc2=O)cc1
77. O=C(Cc1ccccc1Cl)NCc1cccs1
78. CC(=O)Oc1ccc(-c2csc(Nc3cccc(C(=O)O)c3)n2)cc1
79. O=C(Nc1ccccc1C(F)(F)F)c1cc(-c2ccncc2)nc2c(Cl)cccc12
80. CCc1cc(C(=O)OC)c(NC(=O)c2cc(Br)cs2)s1

screen / no.	76	77	78	79	80
V. cholerae motility	1%	37%	25%	-34%	6%
V. cholerae motility viability	-4	11	5	-7	2

81. O=C(O)c1cccnc1SCC(=O)N1c2ccccc2CCc2ccccc21
82. CCOC(=O)c1cnc2[nH]c3ccccc3n2c1=O
83. CC(C)(O)C#Cc1ccc(C(=O)N2CCC(C(N)=O)(N3CCCCC3)CC2)cc1
84. Cc1ccc(C2=C/C(=C/c3ccccn3)C(=O)O2)c(C)c1
85. O=C(NC(Nc1ccccn1)C(Cl)(Cl)Cl)c1ccccc1 (stereo unspecified)

screen / no.	81	82	83	84	85
V. cholerae motility	-3%	5%	-11%	-5%	13%
V. cholerae motility viability	0	-2	0	-2	-6

2 compounds drawn at random from the list so far:
83. CC(C)(O)C#Cc1ccc(C(=O)N2CCC(C(N)=O)(N3CCCCC3)CC2)cc1
84. Cc1ccc(C2=C/C(=C/c3ccccn3)C(=O)O2)c(C)c1

screen / no.	83	84
V. cholerae motility	-11%	-5%
V. cholerae motility viability	0	-2

(next part)
86. CCC1CCCCN1C(=O)c1cnn2cccnc12 (stereo unspecified)
87. O=C(Nc1ccccc1)c1cccc(-c2nnc(-c3ccccc3)o2)c1
88. CC(=O)OC(COc1ccc2ccccc2c1Br)Cn1cnc2ccccc21 (stereo unspecified)
89. COc1ccc(CNC(=O)C(F)(F)C(F)(F)C(F)(F)F)cc1OC
90. CCOC(=O)c1cnc(-c2ccccc2)nc1N1CCOCC1

screen / no.	86	87	88	89	90
V. cholerae motility	9%	-31%	1%	11%	5%
V. cholerae motility viability	3	-15	6	3	-3

91. N#C/C(=C\c1cc2ccccc2nc1N1CCCCC1)c1nn(-c2ccccc2)c(N)c1C#N
92. Nc1cc(=O)[nH]c(SCC(=O)c2cccs2)n1
93. O=S(=O)(NCc1ccccn1)c1ccc(F)c(Cl)c1
94. COC(=O)c1ccccc1NC(=O)NC(C)(C(F)(F)F)C(F)(F)F
95. CCOC(=O)c1c(-c2ccccc2)csc1NC(=O)c1nn(CC)cc1Br

screen / no.	91	92	93	94	95
V. cholerae motility	3%	-5%	-3%	1%	-19%
V. cholerae motility viability	-1	-5	-2	0	-15

96. CSc1ccccc1NC(=O)c1cnccn1
97. Cc1ccc2nc(-c3ccc(Br)c(NC(=O)c4ccc(F)cc4)c3)oc2c1
98. CCC(=O)N1CCN(c2ccc(NC(=O)c3ccccc3I)cc2)CC1
99. C=CCc1ccc(OCCCOc2ccccc2Br)c(OC)c1
100. CC1CN(C2CCN(Cc3ccccc3Br)CC2)CC(C)O1 (stereo unspecified)

screen / no.	96	97	98	99	100
V. cholerae motility	2%	8%	4%	-3%	-10%
V. cholerae motility viability	-1	-2	0	-6	-3

101. COc1ccc(NS(=O)(=O)c2cc(N(C)S(=O)(=O)c3ccc(Cl)cc3)c(C)cc2C)cc1
102. CCOc1ccnc(SCC(=O)CC(=O)c2ccccc2)c1C#N
103. O=C(c1ccc(Sc2nnc(Cc3ccccc3)n2-c2ccccc2)c([N+](=O)[O-])c1)N1CCCC1
104. O=C(Oc1ccc(Cl)cc1Br)c1ccc(F)cc1

screen / no.	101	102	103	104
V. cholerae motility	-19%	27%	-7%	-4%
V. cholerae motility viability	-9	8	8	-5

Compound activity as filed in PubChem BioAssay.

An excerpt, so the mix of outcomes need not match the whole.
